# KCNQ2 block – KCNQ2 potassium channel inhibitors, primary screen, cell-based, CHO-K1, FluxOR thallium flux, B-score (AID 2156); O88943; 20 min; stronger effect = lower value; only compounds with negative scores are shown here; some inactives read as strong as hits; B-score at 10 µM; 310,000 compounds, 1.1% hits;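 active = fluorescence ratio B-score at most minus 3 library SDs, with starting brightness B-score within 2 library SDs, cut at about -5.5 in these data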
# Target sequence (O88943 whole entry, looked up): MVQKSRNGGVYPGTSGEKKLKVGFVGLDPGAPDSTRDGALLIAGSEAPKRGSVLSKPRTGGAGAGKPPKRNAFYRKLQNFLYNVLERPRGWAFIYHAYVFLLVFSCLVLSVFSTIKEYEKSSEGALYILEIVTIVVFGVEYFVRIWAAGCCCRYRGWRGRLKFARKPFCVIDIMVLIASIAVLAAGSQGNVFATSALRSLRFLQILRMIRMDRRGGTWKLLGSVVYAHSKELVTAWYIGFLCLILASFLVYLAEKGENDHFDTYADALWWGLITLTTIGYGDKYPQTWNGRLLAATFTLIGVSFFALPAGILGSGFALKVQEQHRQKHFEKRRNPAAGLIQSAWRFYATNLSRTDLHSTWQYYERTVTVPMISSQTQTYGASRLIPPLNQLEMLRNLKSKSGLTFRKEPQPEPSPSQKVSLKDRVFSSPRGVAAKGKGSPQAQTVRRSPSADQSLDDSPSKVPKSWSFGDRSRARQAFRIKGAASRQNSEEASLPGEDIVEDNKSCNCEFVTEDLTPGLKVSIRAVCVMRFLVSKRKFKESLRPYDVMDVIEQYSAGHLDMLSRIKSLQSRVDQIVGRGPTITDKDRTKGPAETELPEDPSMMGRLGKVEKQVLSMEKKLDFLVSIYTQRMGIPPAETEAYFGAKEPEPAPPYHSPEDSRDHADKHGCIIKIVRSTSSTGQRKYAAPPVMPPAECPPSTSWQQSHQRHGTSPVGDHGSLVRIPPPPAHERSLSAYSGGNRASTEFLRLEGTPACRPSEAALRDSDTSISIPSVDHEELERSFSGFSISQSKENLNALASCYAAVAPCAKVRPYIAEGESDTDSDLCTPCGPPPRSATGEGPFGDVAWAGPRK
# KCNQ2 block baseline – second read-out of KCNQ2 block, no call of its own (marks repeat the call); B-score; measured here: initial fluorescence intensity artifact check;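 brightness before thallium and not channel activity; 0 = typical well and far values either way flag optical interference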
# An asterisk follows results filed as active; i = inactive; & = joins results of further samples. An excerpt. The share of hits here may be higher or lower than overall.
SMILES,KCNQ2 block,KCNQ2 block baseline
CN(C)C1(CNC(=O)Nc2ccc(Cl)c(Cl)c2)CCCCC1,i,-0.62
O=c1[nH]c(=S)n(C2CC2)c(O)c1/C=N/Nc1cccc2ccccc12,i,1.38
CCN1CCC2(CCNC2)C1 (stereo not given),i,0.81
CCOc1cc(C2NCc3ccccc3-n3cccc32)ccc1OC (stereo not given),i,0.56
O[C@@H]1CCCC[C@H]1N1CCC(c2ccccc2)CC1,i,-0.02
CCOC(=O)C1(CCc2ccccc2)CCN(C2CCSCC2)CC1,i,-0.42
CC(=NCCC(c1ccccc1)c1ccccc1)c1c(O)n(C)c(=O)n(C)c1=O,i,-0.2
CSCCC(N=Cc1c(O)n(-c2ccc(Br)cc2)c(=O)[nH]c1=O)C(=O)OC(C)(C)C (stereo not given),i,0.48
O=P(C(Cl)Cl)(N1CCOCC1)N1CCOCC1,i,-0.27
COC(=NC1CCCC1)C(O)c1c[nH]c2ccccc12 (stereo not given),i,0.06
Cc1ccc(OP(=O)(Nc2cccc(C)c2)Oc2ccc(C)cc2)cc1,i,0.05
O=C(c1cccc(Cl)c1)C1CCCN(Cc2cccc3cnccc23)C1 (stereo not given),i,0.75
O=C1CN=C(c2ccc(Cl)cc2)c2oc3ccccc3c2N1,i,0.07
CCCN1CCc2cc(O)cc3c2[C@H]1Cc1ccc(O)c(O)c1-3,i,-7.05
Cc1cccc(OP(=O)(Nc2cccnc2)Oc2cccc(C)c2)c1,i,0.68
NP(=O)(OCC(F)(F)F)Oc1ccccc1 (stereo not given),i,-1
c1ccc(CCNC2CCCCCC2)cc1,i,-0.24
CN1CCCN(C(=O)COc2ccccc2)CC1,i,-0.41
CCN(CC)C(=O)c1ccc(NC(=O)COc2ccccc2F)cc1,i,0.11
C=CCN1C(=O)NC(=O)/C(=C/c2cccn2C)C1=O,i,-0.37
O=C(O)CCn1cc(C=C2C(=O)NC(=O)NC2=O)c(-c2cc3ccccc3oc2=O)n1,i,0.57
CC(C)(C)c1cc([N+](=O)[O-])cc(C(C)(C)C)c1O,i,-1.23
CCCc1c(C)nc(SCC(=O)C(C)(C)C)nc1OC(=O)N(C)C,i,0.02
O=C(Cc1ccccc1)N1CCN(Cc2cccc(Br)c2)CC1,i,0.02
O=C(C(Cc1ccccc1)NS(=O)(=O)c1cccc2nsnc12)N1CCC2(CC1)OCCO2 (stereo not given),i,-0.02
# More results
SMILES,KCNQ2 block,KCNQ2 block baseline
COC(=O)C1=C(c2cc3ccccc3o2)C[C@@H]2CC[C@H]1N2C(=O)NCc1ccc(F)cc1,i,0.72
COCc1cc(C2SCC(=O)Nc3c2c(=O)[nH]n3C(C)C)ccc1OC (stereo not given),i,0.2
CN(C)S(=O)(=O)c1cc(C(=O)N2CCC(C(=O)O)(c3ccccc3)CC2)ccc1Cl,i,0.69
O=c1c2ccccc2nc(-c2ccccc2)n1-c1cccc(O)c1,i,-0.69
C[C@H]1CC[C@@]2(C)[C@@H](CC[C@@H]3[C@@H]2CC[C@]2(C)[C@@H](O)CC[C@@H]32)C1,i,1.01
Cc1cc(=O)[nH]c(SCc2nc3ccccc3c(=O)n2-c2ccccc2C)n1,i,0.01
O=C(COc1ccc(Cl)cc1)N1CCN(C/C=C/c2ccccc2)CC1,i,1.19
COc1cc(OC)cc(C(=O)Nc2ccc(Br)cc2C(=O)c2ccccc2)c1,i,-0.78
c1ccc(-c2cc(-c3ccccc3)[n+](-c3ccccc3)c(-c3ccccc3)c2)cc1,-12.8*,-1.1*
O=[N+]([O-])c1ccc(NCCO)c2ncccc12,i,0.03
O=c1c2ccccc2nc(CNCc2ccco2)n1-c1ccc(F)cc1,i,-0.99
O=c1[nH]c(O)c(N=Nc2ccc(SC(F)F)cc2)c(=O)[nH]1,i,-0.13
O=C(Cn1c(=O)c(C(F)(F)F)nc2ccccc21)N1CCC2(CC1)OCCO2,i,-0.32
CCOc1ccc(C2CC(c3c(O)n(C)c(=O)n(C)c3=O)=NN2)cc1 (stereo not given),i,1.07
O=C1CN=C(c2ccc(F)cc2)c2oc3ccccc3c2N1,i,0.84
COc1ccc2c(c1OC)C(=O)OC2C1c2cc3c(cc2CCN1C)OCO3 (stereo not given),i,-1.43
CC1=CC(=C2C(=O)NC(=S)NC2=O)C=C(C(F)(F)F)N1C,i,-2.14
CCc1ccc(CN2CCN(Cc3cc(Br)ccc3O)CC2)cc1,i,1
COc1ccc(N2C(=O)/C(=C/c3cc(C)n(-c4ccc(C)cn4)c3C)C(=O)NC2=S)c(OC)c1,i,0.7
Cc1ccc(NP(=O)(Oc2ccccc2F)Oc2ccccc2F)cc1,i,-0.29
CCOc1ccccc1CN1C2CCC1CC(c1ccc(C)cc1)C2 (stereo not given),i,0.61
Cc1c(C=O)c2ccccc2n1Cc1ccc([N+](=O)[O-])cc1,i,-0.17
Cc1ccc(-n2c(CNCc3ccc(F)cc3)nc3ccccc3c2=O)cc1,i,-1.1
Cc1cc(/C=C2\C(=O)NC(=S)N(C)C2=O)c(C)n1C1CCCCC1,i,-0.16
Cc1c(N=Cc2c(O)n(C)c(=O)[nH]c2=O)c(=O)n(-c2ccccc2)n1C,i,-1.21

# Already shown: three of the compounds above.
SMILES,KCNQ2 block,KCNQ2 block baseline
COC(=O)C1=C(c2cc3ccccc3o2)C[C@@H]2CC[C@H]1N2C(=O)NCc1ccc(F)cc1,i,0.72
COCc1cc(C2SCC(=O)Nc3c2c(=O)[nH]n3C(C)C)ccc1OC (stereo not given),i,0.2
CN(C)S(=O)(=O)c1cc(C(=O)N2CCC(C(=O)O)(c3ccccc3)CC2)ccc1Cl,i,0.69

# Additional results follow:
SMILES,KCNQ2 block,KCNQ2 block baseline
CN=C(SCc1ccccc1)c1c(O)n(C)c(=O)n(C)c1=O,i,0.84
COc1ccc(CC2(CCc3ccncc3)C(=O)NC(=O)NC2=O)cc1OC,i,0.9
COc1ccccc1Cn1c(SCC#N)nc2cc(C(=O)N3CCC4(CC3)OCCO4)ccc2c1=O,i,-0.65
CN(C(=O)Oc1ccc(C(C)(C)C)cc1)c1ccccc1,i,2.42
CCC(=NCCCN(C)C)c1c(O)n(-c2ccc(OC)cc2)c(=O)[nH]c1=O,i,0.94
CC1=C(C(=O)O)N2C(=O)C(NC(=O)CCCC(=O)O)C2SC1 (stereo not given),i,1.24
Cc1ccc(C2C(S(C)(=O)=O)=C(O)C(=O)N2c2ccccc2)cc1 (stereo not given) (tested in a mixture with another compound),i,0.67
O=[N+]([O-])c1ccccc1-c1cc(-c2ccccc2)cc(-c2ccccc2)[n+]1Cc1ccccc1Cl,-7.41*,-0.51*
CCC(=NCc1ccco1)c1c(O)n(C2CCCCC2)c(=O)[nH]c1=O,i,1.34
O=C(c1cc2nc(-c3ccccc3)cc(-c3ccccc3)n2n1)N1CCC2(CC1)OCCO2,i,-0.08
CN(C(=O)Oc1ccc(C(=O)c2ccc(Cl)cc2)cc1)c1ccccc1,i,1.94
Cc1cccc(CS(=O)(=O)Cc2ccc(C(=O)N3CCC4(CC3)OCCO4)o2)c1,i,0.19
CC12CN3CC(C)(CN(C1)C3c1cccnc1)C2=O (stereo not given),i,0.19
COc1ccc2[nH]c3c(c2c1)CCNC3C (stereo not given),i,-0.12
CCCCn1c(O)c(C(C)=NCCCn2ccnc2)c(=O)[nH]c1=O,i,2.45
Cc1ccc(C[n+]2c(-c3ccc(C)cc3)cc(-c3ccc(C)cc3)cc2-c2ccc(C)cc2)cc1,i,-1.41
c1ccc2c(N3CCNCC3)nsc2c1,i,-0.3
CN(C)CC#CCC(O)(c1ccccc1)C1CCCC1 (stereo not given),i,-0.27
O=c1[nH]c(=O)n(CCC2=CCCCC2)c(O)c1C=Nc1cccc(F)c1,i,-0.87
Cc1ccccc1-n1c(O)c(/C=N/c2nccs2)c(=O)[nH]c1=O,i,-0.31&0.58
O=C(N/N=C/c1c(O)n(CCc2ccc(F)cc2)c(=O)[nH]c1=O)c1ccccc1,i,0.97
CC(C)c1cccc(C(C)C)c1OCCn1ccnc1,i,-0.01
COC(=O)C1=C(c2cc3ccccc3o2)C[C@@H]2CC[C@H]1N2C(=O)N1CCC(O)CC1,i,-0.02
CN1C(=O)NC(=O)/C(=C/c2ccc([N+](=O)[O-])s2)C1=O,i,1.63
Cc1ccc(C2CC(=O)C(C=NCCN3CCN(C(=O)Cc4ccccc4)CC3)=C(O)C2)cc1 (stereo not given),i,0.08
# More compounds
SMILES,KCNQ2 block,KCNQ2 block baseline
Cc1ccc(OCC(=O)N2CCN(CC3CC4C=CC3C4)CC2)cc1 (stereo not given),i,-1.55
COc1ccc(C(CNC(=O)c2ccc3c(c2)CCC3)N(C)C)cc1 (stereo not given),i,0.51
CC(=O)N(C1=NCCCS1)c1ccc(Cl)cc1,i,0.89
O=c1[nH]c(=S)[nH]c(O)c1N=Nc1ccc(S(=O)(=O)N2CCOCC2)cc1,i,1.48
Cc1cccc(NC(=O)C(C)N2CC=C(c3ccccc3)CC2)c1 (stereo not given),i,0.03
CCCCn1c(=O)c(C(=O)Nc2ccccc2N)c(O)c2ccccc21,i,0.35
O=C(c1cn(Cc2ccccc2)c2ccccc12)N1CCCCC1,i,-0.62
CC(C)c1ccc(C2NCc3ccccc3-n3cccc32)cc1 (stereo not given),i,0.67
C[C@]12CC[C@@H](O)C[C@H]1CC[C@@H]1[C@@H]2CC[C@]2(C)C(=O)CC[C@@H]12,i,-0.59
CN(C)[C@@H]1C(=O)C(C(N)=O)=C(O)[C@@]2(O)C(=O)C3=C(O)c4c(O)cccc4[C@@](C)(O)[C@H]3[C@H](O)[C@@H]12,i,1.48&0.14
O=c1[nH]c(=O)n(C2CCCCC2)c(O)c1C1NCCc2ccccc21 (stereo not given),i,2.42
O=[N+]([O-])c1cccc(CN2CCN(Cc3ccc(Br)cc3)CC2)c1,i,-0.49
CC(=O)Nc1ccccc1C(=O)OCc1ccc(F)cc1,i,-2.62
O=C(CN1CCOCC1)c1cccc2ccccc12,i,0.22
O=C(CNS(=O)(=O)c1ccc(Br)s1)N1CCC2(CC1)OCCO2,i,-0.02
CCn1cc(C(=O)N2CCCCC2)c2ccccc21,i,0.13
CCOCCCNC(=O)C1c2cc(OC)c(OC)cc2C(=O)N2CCCCC12 (stereo not given),i,-0.11
CSc1ccccc1C(=O)C1CCCN(Cc2ccn[nH]2)C1 (stereo not given),i,-0.56
COc1ccc(N2C(=O)NC(=O)/C(=C/c3ccc(N4CCOCC4)cc3)C2=O)cc1,i,0.33
C/C(=N\N1CCN(C)CC1)c1c(O)[nH]c(=O)[nH]c1=O,i,2.68
CC(C)CN(CC(C)C)c1ccc(C=C2C(=O)NC(=S)NC2=O)cc1[N+](=O)[O-],i,0.03
CCOC(=O)C(O)(c1ccc(NC(=O)c2ccco2)c(OC)c1)C(F)(F)F (stereo not given),i,0.35
COc1ccccc1OCC(=O)Nc1ccc(Cl)cc1C(=O)c1ccccc1,i,0.21
Cc1nn(CCC#N)c2c1P(=S)(N1CCCC1)OC(c1ccc(F)cc1)=N2 (stereo not given),i,2.9
O=C(N/N=C/c1c(O)n(-c2ccccc2)c(=S)[nH]c1=O)c1ccccc1,i,0.44
# Next part.
SMILES,KCNQ2 block,KCNQ2 block baseline
Cc1nn(-c2ccccc2)c(Cl)c1C1C(C#N)=C(N)Oc2c1c(=O)oc1ccccc21 (stereo not given),i,1.33
CCC1(c2ccc(-c3ccccc3)cc2)C(=O)NC(=O)NC1=O,i,-0.11
CCCCCP(=O)(O)c1ccccc1,i,-0.13
CNC(=O)OCCc1nccn1C,i,0.09
O=c1c2ccccc2nc(-c2ccc(Cl)cc2Cl)n1-c1nccs1,i,0.26
COc1cc2c(cc1OC)C13CCN4CC5=CCOC6CC(=O)N2C1C6C5CC43 (stereo not given) (tested in a mixture with another compound),i,-0.31
CCCCC(CC)COCCCN=Cc1c(O)[nH]c(=S)[nH]c1=O (stereo not given),i,1.25
COC(=O)C1=C(c2cc3ccccc3s2)C[C@@H]2CC[C@H]1N2C(=O)N1CCC(C)CC1,i,0.53
CCN1CCN(c2cc(=O)n3ccccc3n2)CC1,i,0.04
CC(=O)c1c(O)n(-c2cccc(Cl)c2)c(=O)[nH]c1=O (tested in a mixture with another compound),i,3.21
CCN1C(=O)CC(c2cccnc2)=Nc2ccccc21,i,1.61
O=C(c1ccc2c(c1)OCO2)C1CCCN(Cc2c(F)cccc2Cl)C1 (stereo not given),i,0.13
Cn1c(O)c(C(c2ccccn2)c2c(O)n(C)c(=S)n(C)c2=O)c(=O)n(C)c1=S,i,1.71
Cc1ccc(C2CC3CCC(C2)N3Cc2ccccc2F)cc1 (stereo not given),i,-0.29
CCCCn1c(=O)c(C(=O)Nc2ccsc2C(=O)OC)c(O)c2ccccc21,i,-2.16
O=C(CCNC(=O)N1C[C@H]2C[C@@H](C1)c1cccc(=O)n1C2)Nc1cccc(Cl)c1,i,1.17

# 4 of the compounds above, with each value named:
> CC(=O)c1c(O)n(-c2cccc(Cl)c2)c(=O)[nH]c1=O (tested in a mixture with another compound)
  KCNQ2 block: i	KCNQ2 block baseline: 3.21

> O=C(CCNC(=O)N1C[C@H]2C[C@@H](C1)c1cccc(=O)n1C2)Nc1cccc(Cl)c1
  KCNQ2 block: i	KCNQ2 block baseline: 1.17

> O=c1c2ccccc2nc(-c2ccc(Cl)cc2Cl)n1-c1nccs1
  KCNQ2 block: i	KCNQ2 block baseline: 0.26

> CNC(=O)OCCc1nccn1C
  KCNQ2 block: i	KCNQ2 block baseline: 0.09

# Compounds from the list above that have a thiophene ring, fused or not:
SMILES,KCNQ2 block,KCNQ2 block baseline
CN1C(=O)NC(=O)/C(=C/c2ccc([N+](=O)[O-])s2)C1=O,i,1.63
O=C(CNS(=O)(=O)c1ccc(Br)s1)N1CCC2(CC1)OCCO2,i,-0.02
COC(=O)C1=C(c2cc3ccccc3s2)C[C@@H]2CC[C@H]1N2C(=O)N1CCC(C)CC1,i,0.53
CCCCn1c(=O)c(C(=O)Nc2ccsc2C(=O)OC)c(O)c2ccccc21,i,-2.16

# Of the compounds above, 3 contain a COOH group.
SMILES,KCNQ2 block,KCNQ2 block baseline
O=C(O)CCn1cc(C=C2C(=O)NC(=O)NC2=O)c(-c2cc3ccccc3oc2=O)n1,i,0.57
CN(C)S(=O)(=O)c1cc(C(=O)N2CCC(C(=O)O)(c3ccccc3)CC2)ccc1Cl,i,0.69
CC1=C(C(=O)O)N2C(=O)C(NC(=O)CCCC(=O)O)C2SC1 (stereo not given),i,1.24
